Assay outcomes deposited in PubChem by several laboratories.
GALR2 ag: agonists of human galanin receptor 2 (GALR2); hit rate 0.48% among 140,000; O43603; GALR2-expressing cells, agonist activation read-out; activation, %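 (tested at 5 µM)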;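 active = above mean plus 3 SD of all compounds, about 5% in these data, not always enough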;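 note: 0% = vehicle buffer wells and 100% = reference agonist at full effect; tested in CHO reporter cells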
Target sequence (O43603 whole entry, looked up): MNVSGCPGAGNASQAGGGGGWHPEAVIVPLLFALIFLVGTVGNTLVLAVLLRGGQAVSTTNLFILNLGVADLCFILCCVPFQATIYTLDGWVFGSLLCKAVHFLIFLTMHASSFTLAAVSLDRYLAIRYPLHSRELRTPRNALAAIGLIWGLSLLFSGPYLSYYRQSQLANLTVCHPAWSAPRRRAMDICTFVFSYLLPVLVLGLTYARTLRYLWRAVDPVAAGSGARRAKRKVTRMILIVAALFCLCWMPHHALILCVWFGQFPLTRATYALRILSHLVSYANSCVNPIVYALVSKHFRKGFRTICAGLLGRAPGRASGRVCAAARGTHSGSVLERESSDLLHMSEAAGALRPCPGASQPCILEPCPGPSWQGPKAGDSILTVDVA
HSV replic up: HSV replication enhancement | HSV replication augmentation in cells, fold increase | maximum fold increase | hit rate 0.005% among 220,000 | AID 1956;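 active = peak rise of 1.5-fold or more in the series; tested in PC3 cells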;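 note: first round at 10 µM; read as green reporter fluorescence; hits show the peak of a series up to 25 µM; 1 = signal of infected wells without compound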
INS promoter inh: TRM-6 insulin promoter activity inhibition. TRM-6 cells (human fetal islet line), insulin promoter-eGFP reporter, imaging; reporter expression induced with tamoxifen. inhibition, % at 2 µM. hit rate 0.9% among 130,000;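 active = inhibition above the mean plus 3 SD, with well images judged a real hit on visual review, cut at about 60% in these data, passing the limit was not always enough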
RGS16-Gao: modulates binding between human RGS16 and Galphao | O15492+P09471 | bead-based flow cytometry RGS16-Galphao binding, fluorescence; actives lie on both sides | binding response (% of control), % at 10 µM | hit rate 0.38% among 220,000 | AID 1441;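 active = below 25% or above 175%, edge rows of some plates excepted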;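 note: Galphao activated by GDP with aluminum fluoride before binding; 100% = wells without compound and 0% = beads without RGS; some results beyond the cut were filed as inactive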
Target sequence (O15492 whole entry, looked up): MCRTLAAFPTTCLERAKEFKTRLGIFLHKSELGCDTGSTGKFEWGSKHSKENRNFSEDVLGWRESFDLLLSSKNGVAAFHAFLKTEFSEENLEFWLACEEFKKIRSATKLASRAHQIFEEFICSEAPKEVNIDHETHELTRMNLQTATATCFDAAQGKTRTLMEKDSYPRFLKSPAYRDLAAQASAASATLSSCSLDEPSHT
Target sequence (P09471 whole entry, looked up): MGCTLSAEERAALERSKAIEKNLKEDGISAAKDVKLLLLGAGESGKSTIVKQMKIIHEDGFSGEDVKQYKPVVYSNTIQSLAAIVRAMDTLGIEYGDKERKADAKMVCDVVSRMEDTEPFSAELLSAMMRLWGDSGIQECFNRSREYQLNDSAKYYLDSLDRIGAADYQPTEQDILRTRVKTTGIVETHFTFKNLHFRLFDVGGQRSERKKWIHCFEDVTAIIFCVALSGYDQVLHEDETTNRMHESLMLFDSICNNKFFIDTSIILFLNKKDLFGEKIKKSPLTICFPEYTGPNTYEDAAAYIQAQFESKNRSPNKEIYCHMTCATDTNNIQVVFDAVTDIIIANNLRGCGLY
PKD1 inh: blocks activity of human protein kinase D1 | Q15139 | PKD1 kinase fluorescence polarization assay | inhibition, %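 (about 10 µM by stock and volumes)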 | hit rate 0.056% among 200,000 | AID 797;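 active = inhibition of 50% or more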;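 note: controls were vehicle for no effect and a reference inhibitor for full effect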
INS promoter inh cell count: also measured in INS promoter inh; calls as there; normalized cell count, %; measured here: cell count, toxicity; reference of the scale not given here;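 cells exposed to compound for 48 h; stained nuclei by imaging scaled within each plate; lower means fewer cells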
HSV replic up primary fold: recorded beside HSV replic up, whose call it bears; fold increase; compound at 10 µM; measured here: primary screen fold increase 10 uM; tested in PC3 cells;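 GFP signal in the first replicate; 1 = infected wells without compound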
Numbers without * were called inactive; i = inactive; . = no result given.

SMILES | GALR2 ag | HSV replic up | HSV replic up primary fold | INS promoter inh | INS promoter inh cell count | RGS16-Gao | PKD1 inh
Cc1ccc(NC(=O)CCNC(=O)c2ccc([N+](=O)[O-])cc2)cc1S(=O)(=O)N(C)C | . | i | 1.03 | . | . | 99.8 | 1.4
N#C/C(=C\c1cccs1)C(=O)N1CCOCC1 | . | i | 0.92 | . | . | 102.8 | .
COc1cc(NC(=O)COC(=O)CNC(=O)c2ccc(C)s2)cc(OC)c1 | . | i | 0.89 | . | . | 91.6 | -3.9
O=C(O)C1CC(c2ccccc2)=Nc2ccccc2S1 (centres undefined) | . | i | 1.04 | . | . | 106.7 | .
CC(C)CC(=O)Nc1ccccc1N1CCN(c2ccc(F)cc2)CC1 | . | i | 0.98 | -100.0 | 70.7 | 55.0 | 0.0
CC(C)NC(=O)NNc1c(Cl)cncc1Cl | . | i | 0.86 | . | . | 90.2 | .
CCOc1ccc(C2=Nn3c(nnc3-c3ccco3)SC2)cc1 | -1.6 | i | 0.85 | 22.2 | 126.9 | 105.9 | -4.0
Cc1ccc2cc(C#N)c(SCC(=O)NCc3ccco3)nc2c1 | -1.4 | i | 1.06 | 14.3 | 102.8 | 125.4 | 10.2
COc1ccccc1C(=O)Nc1nnc(-c2ccc(F)cc2)o1 | -1.8 | i | 0.92 | . | . | 104.9 | 7.8
CCOC(=O)c1ccccc1NC(=O)Cn1cnc2c(nnn2-c2ccc(C)cc2)c1=O | -0.6 | i | 0.95 | . | . | 98.7 | 0.0
CCOC(=O)Cc1csc(NC(=O)CSc2nncn2C)n1 | -1.9 | i | 0.97 | 58.6 | 169.1 | 44.7 | -5.7
CC(C)OC(=O)CSc1nnc(Cc2ccccc2)n1CC1CCCO1 (centres undefined) | -2.5 | i | 0.93 | -28.6 | 97.6 | 98.7 | 0.1
OCCC1CN(Cc2cnc(N3CCOCC3)s2)CCN1C1CCCC1 (centres undefined) | . | i | 1.19 | . | . | 102.9 | 3.8
CC(C(=O)Nc1ccc2c(c1)OCCO2)n1nnc(-c2ccccc2)n1 (centres undefined) | . | i | 1.09 | -10.5 | 104.5 | 96.4 | 1.9
CSc1ccc(/C=N/NC(=O)c2sccc2C)cc1 | -0.5 | i | 0.97 | 3.2 | 137.2 | 104.3 | -4.1
O=C(c1ccco1)N1CCN(S(=O)(=O)c2ccc(S(=O)(=O)NC3CCCC3)cc2)CC1 | -1.4 | i | 0.88 | -53.9 | 134.2 | 103.6 | 7.9
O=C(Cn1nnc(-c2ccccc2NC(=O)c2ccccc2)n1)Nc1ccc2c(c1)OCCO2 | -1.2 | i | 0.86 | . | . | 98.4 | 0.9
Cc1ccc(S(=O)(=O)/N=C2/NC(=O)/C(=C/c3ccncc3)S2)cc1 | 0.3 | i | 0.94 | 35.3 | 120.0 | 100.5 | 6.4
Cn1c(/C(C#N)=C(\O)COc2ccc3ccccc3c2)nc2ccccc21 | -1.2 | i | 0.89 | 6.2 | 93.4 | 101.4 | -6.8
O=C(Nc1c(Cl)cc(Cl)cc1C(=O)NCCN1CCOCC1)c1ccc(Cl)cc1Cl | -2.0 | i | 0.91 | -275.0 | 120.1 | 106.4 | -11.0
Cc1cc(C)cc(NC(=S)Nc2cccc3cnccc23)c1 | . | i | 1 | . | . | 99.4 | -5.5
c1ccc(CCNc2ncnc3sccc23)nc1 | . | i | 0.94 | . | . | 94.7 | -3.2
COc1ccc(C2=NCC(CSc3nccc(=O)[nH]3)S2)cc1 (centres undefined) | -2.3 | i | 0.897 | 85.7* | 123.5* | 101.8 | 7.6
Cn1c(SCc2nc(-c3ccc(Cl)cc3)no2)nnc1-c1ccccc1 | -0.5 | i | 1.02 | . | . | 112.3 | 0.2
CC1CCCN(CC(=O)Nc2ccc(S(=O)(=O)NC3CCCCC3)cc2)C1 (centres undefined) | -0.7 | i | 0.89 | . | . | 105.8 | 4.6
COc1ccccc1N(C)S(=O)(=O)c1ccc(Cl)c(C(=O)N2CCC(C(N)=O)CC2)c1 | . | i | 0.9 | . | . | 108.4 | -5.4
O=C(O)c1cccc(Cn2c(Cl)c(/C=N/Nc3ccccc3)sc2=O)c1 | . | i | 1.13 | 5.0 | 119.7 | 99.9 | -0.3
Cc1cc(C(=O)CSc2nc(N)cc(=O)[nH]2)c(C)n1-c1cccc(F)c1 | -0.6 | i | 1.11 | . | . | 105.0 | -3.6
Cc1cc(NCCN2CCOCC2)n2nc(C)c(-c3ccccc3)c2n1 | -0.3 | i | 0.85 | -343.8 | 44.9 | 107.3 | -7.6
COc1cc(C2NC(=O)NC(C)=C2C(=O)Nc2cccc(C)c2C)cc(OC)c1OC (centres undefined) | -1.6 | i | 0.96 | 41.3 | 133.8 | 92.7 | 7.3
CC(C)CNCC(=O)N1c2ccccc2Sc2ccccc21 | -2.3 | i | 0.997 | 10.7 | 105.3 | 98.3 | -8.3
CC1=CC(=C(C#N)C#N)C=C(C)N1CCN1CCN(C(=O)Nc2ccc(Cl)c(Cl)c2)CC1 | -0.7 | i | 0.92 | -472.7 | 15.7 | 82.7 | 4.0
O=C(CN(CC1CCCO1)C(=O)CNS(=O)(=O)c1ccc(Cl)cc1)NCC1CCCO1 (centres undefined) | -2.0 | i | 0.83 | -23.8 | 148.8 | 110.7 | 3.0
COc1ccc(NC(=S)N2CCC(N(C)CC3CCCO3)CC2)cc1Cl (centres undefined) | -0.8 | i | 0.96 | -36.1 | 142.9 | 104.5 | -12.1
O=C(COC(=O)c1cc2c(s1)CCC2)Nc1ccc(F)cc1 | 0.6 | i | 0.94 | 50.0 | 74.6 | 51.6 | 3.1
CC(=O)Nc1ccc(NC(=S)Nc2ccc(Br)cc2)cc1 | . | i | 1.09 | . | . | 100.9 | .
COc1ccc(NS(=O)(=O)c2ccc(C)c(C(=O)O)c2)cc1 | -0.8 | i | 0.7 | . | . | 103.0 | -2.6
COCCn1c(N)c(Sc2ccccc2[N+](=O)[O-])c(=O)[nH]c1=O | . | i | 1.09 | . | . | 128.2 | .
CCOc1ccc(C2NC(=O)c3n[nH]c(C)c32)cc1 (centres undefined) | -0.6 | i | 0.83 | . | . | 104.2 | -0.5
O=C(Cn1nc(-c2ccccc2Cl)ccc1=O)Nc1ccc(Br)cc1 | . | i | 1 | -6.7 | 68.4 | 111.5 | 0.9
Cc1c(NC(=S)NC(=O)C(C)(C)C)c(=O)n(-c2ccccc2)n1C | -0.2 | i | 1.09 | -6.5 | 69.1 | 62.8 | -1.2
CCS(=O)(=O)Nc1ccc(-c2nnc(SCC(=O)c3cccc(OC)c3)o2)cc1 | -2.1 | i | 0.92 | 27.8 | 79.3 | 102.6 | -3.9
CSc1ncccc1C(=O)NC(C)C1CC2CCC1C2 (centres undefined) | . | i | 1.02 | . | . | 113.8 | -1.6
C=CCSc1nc(C)cc(/C=C\c2ccccc2)c1C#N | -1.4 | i | 1.12 | -100.0 | 149.3 | 86.2 | -3.3
CC(C)N(C(=O)COC(=O)c1cc(Cl)cc(Cl)c1N)C(C)C | -3.4 | i | 0.86 | -8.3 | 104.6 | 99.7 | -1.0
Cc1ccn2cc(CCNC(=O)CC3CCCCC3)nc2c1 | . | i | 0.99 | -81.8 | 104.8 | 98.2 | -0.6
S=C(N/N=C/c1ccc(Cl)c(Cl)c1)Nc1ccccc1Cl | . | i | 0.83 | . | . | 100.5 | 1.3
Cc1ccc(NC(=O)COC(=O)c2ccc([N+](=O)[O-])o2)cc1S(=O)(=O)N1CCCCCC1 | . | i | 0.92 | -13.3 | 153.4 | 104.4 | -4.3
COC(=O)c1[nH]c2cccc(OC)c2c1NC(=O)CCN1CCN(c2ccccc2OC)CC1 | -1.6 | i | 0.91 | . | . | 95.7 | 4.5
COc1ccc(CCN2C(=O)c3ccccc3C2(O)c2ncc[nH]2)cc1OC (centres undefined) | -0.7 | i | 0.997 | 38.9 | 150.8 | 100.9 | -8.3
CCOC(=O)COc1nc(-c2ccc(Cl)cc2)cc(-c2ccco2)c1C#N | . | i | 0.84 | . | . | 155.4 | .
COC(=O)c1ccc2nc(NC(=O)COC(=O)CSc3nc(C)cc(C)n3)sc2c1 | -1.2 | i | 0.98 | 29.4 | 104.7 | 98.2 | -2.7
O=c1c2[nH]c3ccccc3c2ncn1CCN1CCCCC1 | -1.2 | i | 0.87 | 31.2 | 91.1 | 205.8 | -9.1
O=C(CSc1nc2ccccc2c(=O)n1-c1ccc(Cl)cc1)N/N=C/C=C/c1ccccc1[N+](=O)[O-] | -1.6 | i | 0.95 | 16.7 | 100.0 | 100.0 | -6.4
Cc1nc2ccc(NC(=S)N3CCOCC3)cc2nc1C | . | i | 0.99 | . | . | 89.2 | -3.6
Cc1c(/C=N\NC(=O)c2ccc([N+](=O)[O-])cc2)cnn1C | -1.4 | i | 0.98 | 50.0 | 136.9 | 44.1 | -2.6
CCc1nnc(NC(=O)CCC(=O)N2CCCC2)s1 | -1.3 | i | 1.02 | 30.3 | 89.2 | 97.5 | -0.9
COc1ccc(/C=C(/NC(=O)c2cccs2)C(=O)N2CCOCC2)cc1OC | -0.5 | i | 0.98 | . | . | 108.8 | -9.5
O=C(OCCOCCN=C1NS(=O)(=O)c2ccccc21)c1ccncc1 | -0.3 | i | 0.94 | -7.1 | 38.2 | 105.5 | -3.1
O=C1C(Oc2ccccc2)C(c2ccc3c(c2)OCO3)N1CCc1ccc(F)cc1 (centres undefined) | -0.3 | i | 1.02 | -36.7 | 101.6 | 91.0 | 5.8

Part of the list above in order of molecular weight, smallest number first.
SMILES | GALR2 ag | HSV replic up | HSV replic up primary fold | INS promoter inh | INS promoter inh cell count | RGS16-Gao | PKD1 inh
CCc1nnc(NC(=O)CCC(=O)N2CCCC2)s1 | -1.3 | i | 1.02 | 30.3 | 89.2 | 97.5 | -0.9
O=C(OCCOCCN=C1NS(=O)(=O)c2ccccc21)c1ccncc1 | -0.3 | i | 0.94 | -7.1 | 38.2 | 105.5 | -3.1
COc1ccc(CCN2C(=O)c3ccccc3C2(O)c2ncc[nH]2)cc1OC (centres undefined) | -0.7 | i | 0.997 | 38.9 | 150.8 | 100.9 | -8.3
COC(=O)c1ccc2nc(NC(=O)COC(=O)CSc3nc(C)cc(C)n3)sc2c1 | -1.2 | i | 0.98 | 29.4 | 104.7 | 98.2 | -2.7
COC(=O)c1[nH]c2cccc(OC)c2c1NC(=O)CCN1CCN(c2ccccc2OC)CC1 | -1.6 | i | 0.91 | . | . | 95.7 | 4.5

The results go on:
SMILES | GALR2 ag | HSV replic up | HSV replic up primary fold | INS promoter inh | INS promoter inh cell count | RGS16-Gao | PKD1 inh
c1ccc2c3c([nH]c2c1)C(C1CCCCC1)N(Cc1ncc[nH]1)CC3 (centres undefined) | . | i | 1.15 | . | . | 101.7 | -2.5
O=C(NCc1ccccn1)Nc1ccc(Cl)c(Cl)c1 | 0.1 | i | 0.83 | 71.4 | 118.5 | 105.2 | 3.5
O=[N+]([O-])c1ccc(-c2cc(-c3ccncc3)nc3ccc4ccccc4c23)cc1 | -2.2 | i | 0.97 | 10.0 | 95.8 | 100.2 | -9.0
C=CCc1cc(C)cc(C)c1OCCn1cncn1 | -2.1 | i | 1.01 | 21.6 | 89.2 | 99.7 | -6.2
CCc1ccc(/C=C2/Sc3ccccc3N(CC(=O)NCCCOC)C2=O)cc1 | . | i | 0.81 | . | . | 89.2 | 4.8
COc1ccccc1C(=O)N(Cc1cccs1)C1CCS(=O)(=O)C1 (centres undefined) | -1.8 | . | . | -23.5 | 81.7 | 102.5 | -0.3
CN(C)C(=O)CN(c1ccc(F)c(Cl)c1)S(C)(=O)=O | -2.2 | i | 1 | -24.2 | 159.3 | 101.9 | -4.5
O=C(c1ccc(S(=O)(=O)N2CCCCC2)cc1)N1CCN(c2ccccc2)CC1 | -0.7 | i | 0.94 | -91.7 | 52.2 | 28.0 | -0.4
Fc1ccc(-c2n[nH]c(=S)n2CC2CCCO2)cc1 (centres undefined) | -1.4 | i | 0.94 | . | . | 97.9 | 1.9
COc1ccc(/C=N/Nc2nc3ccccc3c(=O)[nH]2)cc1 | -0.1 | . | . | 0.0 | 83.6 | 105.3 | -8.3
O=C(c1ccccc1)c1ccc2nc(-c3ccc(NC(=O)c4ccccc4F)cc3)[nH]c2c1 | 4.2 | i | 0.75 | 0.0 | 139.1 | 103.4 | -6.5
CC(=O)N1CCN(CCN=CC2=C(O)CC(C)(C)CC2=O)CC1 | 0.0 | i | 0.92 | -62.8 | 98.1 | 100.5 | -8.4

3 entries drawn at random from those above, as already listed:
SMILES | GALR2 ag | HSV replic up | HSV replic up primary fold | INS promoter inh | INS promoter inh cell count | RGS16-Gao | PKD1 inh
C=CCc1cc(C)cc(C)c1OCCn1cncn1 | -2.1 | i | 1.01 | 21.6 | 89.2 | 99.7 | -6.2
O=C(NCc1ccccn1)Nc1ccc(Cl)c(Cl)c1 | 0.1 | i | 0.83 | 71.4 | 118.5 | 105.2 | 3.5
COc1ccccc1C(=O)N(Cc1cccs1)C1CCS(=O)(=O)C1 (centres undefined) | -1.8 | . | . | -23.5 | 81.7 | 102.5 | -0.3
